High-throughput results deposited in PubChem BioAssay by National Center for Advancing Translational Sciences (NCATS).
Fluorescein fluor: qHTS Assay for Spectroscopic Profiling in Fluorescein Spectral Region; max fluorescein-equivalent concentration, M; Compound autofluorescence, 480/540 nm, fluorescein-equivalent; stronger effect = higher value; AID 593, 2007; actives 0.91% (n = 59,000); in the data active = max fluorescein-equivalent concentration above about 10 nM; inconclusive = between about 1.1 nM and that limit
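Library compounds, added at multiple concentrations to pH 8.0 Tris buffer (100 mM), incubate 15 min at room temperature before CCD imaging at 480 nm excitation and 540 nm emission.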
BRCT PPI green: qHTS Assay for Inhibitors of BRCT-Phosphoprotein Interaction (Green Fluorophore); Breast cancer type 1 susceptibility protein (Homo sapiens), P38398; BRCA1 BRCT-phosphopeptide binding, green fluorescence polarization; Potency, µM (titrated, usually from 76.9 µM), for the others: top-dose activity change, negative = inhibition, actives largely listed as inhibitors; actives 0.05% (n = 75,000); AID 875, 2007;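 also: potency is read from the fitted curve at half-maximal effect; plate controls were peptide without protein for full effect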
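Compounds were incubated for 12 min at room temperature with a complex of 100 nM fluorescein-tagged pBACH1 decapeptide and 250 nM His-tagged BRCT protein. Buffer was phosphate pH 7.3 with EDTA, DTT and Tween 20. Disruption of binding lowers the polarization signal.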
HEK293 cAMP cs: qHTS Assay for Agonists of the Thyroid Stimulating Hormone Receptor: Activators of Intracellular cAMP Concentrations in Parental HEK 293. parental HEK293 CNG cAMP sensor, membrane potential fluorescence. Potency, µM (top dose mostly 57.1 µM), without a hit: top-dose activation, usual class: activators. actives 2.5% (n = 73,000); also: potency is read from the fitted curve at half-maximal effect; % of control where 0% means no effect; nearly all actives have a fitted effect of over 55% in size
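Counterscreen for endogenous-receptor signalling: CNG-channel HEK 293 cells report cAMP rise by membrane depolarization. After 60 min dye equilibration with 100 uM RO 20-1724, compounds incubated 30 min before bottom-read fluorescence at 590 nm.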
BRCT inh red: qHTS Assay for Inhibitors of BRCT-Phosphoprotein Interaction (Red Fluorophore). Potency, µM (highest dose often 76.9 µM), without a hit: at the top dose activity change, negative = inhibition, most hits filed as inhibitors. actives 0.03% (n = 75,000). BRCT-phosphopeptide binding, red fluorescence polarization; also: % is scaled to controls: 0 for no effect and ±100 for the full control effect
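Fluorescence polarization: 100 nM His-tagged BRCA1 BRCT with 100 nM TAMRA-labelled phospho-BACH1 decapeptide, phosphate buffer pH 7.3 with 150 mM NaCl, DTT, 0.01% Tween 20; 12 min RT. Binding inhibition seen as FP decrease.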
UbGFP stabilizer: Ubiquitin-GFP Assay. 67,000 tested, under 10 active. Potency, µM (top dose mostly 45.9 µM), for the others: top-dose activation (GFP accumulation), actives largely listed as activators. Ubiquitin-GFP reporter cells, proteasome inhibition, GFP fluorescence; response scale: untreated = 0%, 10 µM MG-132 = 100%; active = well fitted activation curve with a large enough effect, not every such curve was filed as active; inconclusive = small, poorly fitted or top-dose-only effect, or another doubt; inactive = no such curve, though single readings can be large or run the other way; also: potency is read from the fitted curve at half-maximal effect
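Proteasome blockade was scored as a rise in GFP-expressing U2OS cells carrying a ubiquitin(G76V)-GFP construct, imaged after 4 hr compound treatment at 37 °C across a 46 uM–2.9 nM series.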
Epigenetic mod: qHTS Assay for Epigenetic Modulators; mouse C127i GFP locus derepression, cytometry, 30 h; Potency, µM (titrated, usually from 46.1 µM), inactives show at the highest dose GFP derepression (activation); actives 0.09% (n = 68,000); also: % of control where 0% means no effect
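Read-out is the number of GFP-positive cells, scored as fluorescent objects 20 to 120 um wide, reflecting derepression of a silenced CMV-GFP reporter in murine C127i cells after 30 h compound exposure at 37 C.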
USP2a inhib: qHTS Assay for Inhibitors of Ubiquitin-specific Protease USP2a | Potency, µM (series often up to 38.3 µM), for the others: at the top dose activity change, negative = inhibition, usual class: inhibitors | AID 927, 2007 | Ubiquitin carboxyl-terminal hydrolase 2 (Homo sapiens), O75604 | USP2a enzymatic assay, qHTS inhibition | actives 0.1% (n = 60,000);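 also: potency is read from the fitted curve at half-maximal effect; nearly all actives have a fitted effect of over 60% in size; plate controls were DMSO for no effect and NEM full inhibition control for full effect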
Target sequence (O75604 whole entry, looked up): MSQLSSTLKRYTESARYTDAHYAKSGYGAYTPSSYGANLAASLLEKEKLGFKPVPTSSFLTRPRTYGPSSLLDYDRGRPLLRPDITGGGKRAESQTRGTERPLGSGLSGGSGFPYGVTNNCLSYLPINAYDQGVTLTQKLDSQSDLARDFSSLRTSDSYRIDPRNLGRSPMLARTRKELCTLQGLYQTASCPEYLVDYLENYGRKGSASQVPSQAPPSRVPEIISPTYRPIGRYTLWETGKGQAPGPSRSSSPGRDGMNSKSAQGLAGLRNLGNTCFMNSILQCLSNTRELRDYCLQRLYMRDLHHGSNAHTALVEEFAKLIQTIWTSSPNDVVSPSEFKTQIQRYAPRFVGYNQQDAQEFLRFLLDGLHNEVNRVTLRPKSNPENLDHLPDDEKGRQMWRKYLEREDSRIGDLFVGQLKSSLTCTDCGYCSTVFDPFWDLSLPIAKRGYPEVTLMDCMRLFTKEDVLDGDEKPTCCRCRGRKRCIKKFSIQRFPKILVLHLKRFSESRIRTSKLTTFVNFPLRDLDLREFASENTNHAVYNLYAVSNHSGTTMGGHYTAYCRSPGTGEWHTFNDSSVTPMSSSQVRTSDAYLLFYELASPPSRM
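USP2 core (20nM final) preincubated 30 min RT with compound, then Ub-PLA2 20nM and NBD C6-HPC 20uM final added; buffer 20mM Tris-HCl pH 8.0, 2mM CaCl2. Fluorescence Ex 460/Em 535 read at 0 and 2.5 h; normalized to NEM.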
The depositor's hits bear a star; i = inactive; ? = inconclusive; . = not tested or not shown; & = joins results of further samples; [ ] = dose if it differs, or a comment. Unless noted, calls follow the shape of the dose curve; as a rule, active = well fitted curve in the direction sought with a large enough effect; inconclusive = small, poorly fitted or top-dose-only effect, or another doubt; inactive = no such curve, though single readings can be large; an effect the other way counts as inactive or inconclusive. A portion of the library (hit frequency here may not be typical).

SMILES	Fluorescein fluor	BRCT PPI green	HEK293 cAMP cs	BRCT inh red	UbGFP stabilizer	Epigenetic mod	USP2a inhib
CC(C)N1CC2=C(OC(N)=C(C#N)C2c2cccnc2)/C(=C/c2cccnc2)C1 (stereo unspecified)	?	-1.8%	-14.6%	-4.0%	-1.0%	-5.9%	4.3%
Oc1c(Cl)cc(Cl)cc1Sc1cc(Cl)cc(Cl)c1O	?	-2.1%[3.08 µM]	19.7%	-4.0%&-1.0%	.	14.9%[20.6 µM]	14.5%
Cc1ccc(S(=O)(=O)N2CCOCC2)cc1C(=O)N1C(=O)c2cccc(N)c2C1=O	?	-0.2%	3.0%	-2.3%	1.9%	1.6%	21.7%
N#Cc1c(N)nc(SC2CCCCC2=O)c(C#N)c1-c1ccco1 (stereo unspecified)	i	4.3%	-7.2%	-1.2%	-1.0%	1.3%	35.8%[activator]
CCNc1ncc2ncc(=O)n(C[C@H]3CCCO3)c2n1	i	-0.3%	23.5%	-0.9%	7.8%	0.0%[9.22 µM]	4.0%
COCc1cc(C)nc(SCC(=O)c2ccc(O)c(O)c2)c1C#N	i	-1.1%	11.1%	0.5%	-1.6%	-0.1%	-0.4%
O=c1c(-c2ccc(F)cc2)nc2cnc(N3CCOCC3)nc2n1Cc1cccs1	i	-2.3%	15.4%	-0.1%	-2.0%	-5.0%[9.22 µM]	73.1%[activator]
COc1ccc2oc(=O)c(-c3nnc(NCc4ccco4)s3)cc2c1	?	0.9%	-2.4%	1.2%	-13.9%	6.9%	27.7%
O=c1c(-c2ccccc2)nc2cnc(N3CCNCC3)nc2n1Cc1cccs1	i	-2.3%	4.4%	-1.1%	6.0%	3.1%[9.22 µM]	103.9%[activator]
C=C(CC)C(=O)c1ccc(OCC(=O)O)c(Cl)c1Cl	?	-1.5%[3.08 µM]	?	0.6%	0.9%[20.5 µM]	2.3%&-1.1%[20.6 µM]	-8.1%
C=C1C[C@]23C[C@@]1(O)CC[C@H]2[C@@]12C=C[C@H](O)[C@@](C)(C(=O)O1)[C@H]2[C@@H]3C(=O)O	.	-1.0%	-10.1%	1.2%	.	.	.
CCCC(=O)Nc1ncnc2c1ncn2C1OC2COP(=O)(O)OC2C1OC(=O)CCC (stereo unspecified)	.	0.6%[3.08 µM]	.	-0.1%	.	.	-1.1%
COc1ccc(-n2c(=O)cnc3cnc(N4CCNCC4)nc32)cc1	i	-5.9%	5.5%	-0.3%	1.1%	13.5%[9.22 µM]	-2.8%
N#Cc1c(N)n(CCNC(=O)c2cccs2)c2nc3ccccc3nc12	?	6.0%	-0.7%	1.3%	1.6%	-2.6%	20.9%
Cc1nc(C)c(-c2csc(Nc3cccnc3)n2)s1	i	-1.2%	1.5%	0.8%	4.4%	-1.6%	6.8%
O=C1CCCC(O)=C1C=Nc1ccc2c(c1)oc1ccccc12	i	2.0%	-1.0%	0.3%	0.4%	-1.3%	18.3%
O=c1c(-c2ccc(F)cc2)nc2cnc(Oc3cccc(Cl)c3)nc2n1C[C@H]1CCCO1	i	3.0%	3.3%	0.8%	-3.3%	2.3%[9.22 µM]	142.2%[activator]
Cc1nn(-c2ccccc2)c2sc(C(=O)c3c(N)n(C)c(=O)n(C)c3=O)cc12	i	0.3%	3.2%	2.7%	2.8%	1.6%	13.9%
COc1cc2c3c(c1)/C(=C1/SC(NC(C)=O)=NC1=O)C(=O)N3C(C)(C)C=C2C	?	-2.5%	?	-0.9%	-3.7%	1.6%	43.6%[activator]
Oc1ccc(Cc2nccc3cc(O)c(O)cc23)cc1O	?	-7.6%[15.4 µM]	2.7%[11.4 µM]	0.6%[15.4 µM]	0.7%[9.17 µM]	-1.3%[9.22 µM]	.

Some of the entries so far, with values under each structure.
Each structure is followed by: Fluorescein fluor	BRCT PPI green	HEK293 cAMP cs	BRCT inh red	UbGFP stabilizer	Epigenetic mod	USP2a inhib
COCc1cc(C)nc(SCC(=O)c2ccc(O)c(O)c2)c1C#N
  i	-1.1%	11.1%	0.5%	-1.6%	-0.1%	-0.4%
O=c1c(-c2ccc(F)cc2)nc2cnc(N3CCOCC3)nc2n1Cc1cccs1
  i	-2.3%	15.4%	-0.1%	-2.0%	-5.0%[9.22 µM]	73.1%[activator]

(more compounds)
SMILES	Fluorescein fluor	BRCT PPI green	HEK293 cAMP cs	BRCT inh red	UbGFP stabilizer	Epigenetic mod	USP2a inhib
CN1CCN(c2ncc3nc(-c4ccc(Cl)cc4)c(=O)n(CCC#N)c3n2)CC1	i	-0.5%	?	-0.9%	10.0%	2.4%[9.22 µM]	80.6%[activator]
COc1ccc(Oc2ncc3nc(-c4ccc(Cl)cc4)c(=O)n(CCC#N)c3n2)cc1	i	3.4%	-17.2%	0.7%	-8.5%	-4.3%[9.22 µM]	126.8%[activator]
Nc1cccc(-c2nc3ccc(N)cc3s2)c1	i	-1.5%	-5.7%	-2.8%	-3.1%	0.0%	23.5%
CCCC(=O)Nc1nn(C)c2nc3cc(C)ccc3cc12	i	0.8%	6.0%	-0.7%	0.0%	2.2%	4.3%
CCOC(=O)c1cc2c(=O)n3ccccc3nc2n(CCCOC)c1=NC(C)=O	i	-0.6%	-4.1%	0.4%	10.9%	-1.4%	3.0%
CCC(=O)Nc1c(C#N)c2nc3ccccc3nc2n1-c1ccc(C)cc1	?	0.4%	?	0.9%	0.0%	3.5%	7.7%
CN1C(=O)c2ccccc2N(C)C1c1ccc2c(c1)OCO2 (stereo unspecified)	i	-1.0%	?	-1.7%	-0.1%	-2.6%	-4.9%
CN(C)c1ncc2nc(-c3ccccc3)c(=O)n(C[C@H]3CCCO3)c2n1	?	-0.9%	20.4%	-0.1%	-4.9%	5.4%[9.22 µM]	6.5%
O=C(CN1C(=O)c2cccc3cccc1c23)NCc1cccnc1	i	-0.7%	?	0.0%	11.5%	6.9%	3.4%
COCCn1c(=N)c(C(=O)NCc2ccco2)cc2c(=O)n3ccccc3nc21	?	-1.4%	5.9%	-1.0%	.	-2.1%	2.1%
N#Cc1cc2c(=O)n3ccccc3nc2n(CCN2CCOCC2)c1=O	?	1.4%	-7.4%	-0.6%	3.6%	6.0%	-6.1%
Cc1cc(N)c(NC2=CC(=O)CC(C)(C)C2)cc1C	i	2.2%	?	0.8%	-5.0%	0.1%	5.6%
Cc1ccc2cc3c(NC(=O)c4ccco4)nn(C)c3nc2c1	i	-0.7%	-5.3%	1.6%	4.6%	2.2%	27.3%
COc1ncc2nc(-c3ccc(Cl)cc3)c(=O)n(-c3ccccc3)c2n1	i	-1.0%	?	0.4%	-6.7%	0.0%[9.22 µM]	41.2%[activator]
CC(C)Cn1c(CCC(=O)O)ccc1-c1cccs1	i	-0.9%	5.6%	0.2%	-4.9%	9.7%	-1.1%
COc1cccc(-c2cn3nc(C)c(C)nc3n2)c1	i	6.3%	-5.5%	1.0%	.	-2.1%	23.1%
c1ccn2c(c1)nc1c2nc2ccccn21	?	-6.6%	-0.4%	0.1%	1.6%	-2.6%	4.0%
CSc1ccccc1NC(=O)c1c(C)noc1C	i	0.8%	29.4%	0.6%	-1.0%	2.6%	15.0%
CCN1CCN(c2cc3c(cc2F)c(=O)c(C(=O)O)cn3C2CC2)CC1	?	-2.9%[3.08 µM]	.	-0.7%	.	-3.8%[20.6 µM]	7.9%
O=c1c(-c2ccccc2)nc2cnc(Oc3ccccc3)nc2n1C[C@H]1CCCO1	i	-0.9%	?	1.1%	0.6%	2.3%[9.22 µM]	82.8%[activator]
COc1ccc(C2C=C(c3ccccc3)Nc3ncnn32)cc1 (stereo unspecified)	?	-1.6%	?	-1.1%	-1.8%	-3.7%	8.9%
CCOc1ccc(CCNC(=O)C2CCN(c3ccc(N4CCOCC4)nn3)CC2)cc1OCC	i	-1.4%	-8.7%	0.0%	.	0.0%	4.6%
COCCn1c(=O)c(CCc2ccccc2)nc2cnc(N(C)C)nc21	i	-1.6%	?	0.1%	-1.2%	0.0%[9.22 µM]	18.5%
COc1ccc(-c2nc3cnc(N4CCOCC4)nc3n(-c3ccc(OC)cc3)c2=O)cc1	i	0.6%	0.7%	0.6%	-6.9%	-2.7%[9.22 µM]	94.4%[activator]
COc1ccc(OC)c(N=c2oc3cc(O)ccc3cc2C(N)=O)c1	?	-0.8%	14.2%	-2.1%	-0.1%	-1.2%	11.5%
COc1ccc(S(=O)(=O)N2CCN(C(=O)c3cccs3)CC2)cc1OC	?	-1.5%	4.6%	1.3%	1.3%	2.9%	-2.0%
COc1cccc(-c2nc(Nc3ccncc3)c3ccccc3n2)c1	i	12.3%	-14.7%	-0.4%	5.0%	2.9%[9.22 µM]	-90.7%
N#Cc1cc2c(=O)n3ccccc3nc2n(Cc2cccnc2)c1=N	?	-3.9%	5.8%	-0.9%	4.7%	-0.3%	5.9%
COC(=O)c1[nH]c2cc(C)ccc2c1NC(=O)CN1CCN(C(=O)c2ccco2)CC1	i	-2.1%	2.2%	0.6%	-0.7%	-2.0%	27.9%
Cc1ccc2nc(N3CCN(Cc4nnnn4Cc4ccccc4)CC3)c(C#N)cc2c1	?	0.0%	25.2%	-1.9%	0.2%	-2.3%	.
CC(=C1C2C=CC1C1C(=O)NC(=O)C21)c1ccccc1 (stereo unspecified)	?	40.9%[activator]	?	0.0%	-4.0%	?	3.7%
COc1ccc(-c2nc3cnc(OC)nc3n(C)c2=O)cc1	i	-2.2%	6.6%	-0.4%	5.1%	-2.7%[9.22 µM]	73.7%[activator]
COc1ncc2nc(-c3cccs3)c(=O)n(CCc3ccccc3)c2n1	i	0.2%	18.8%	0.5%	-4.0%	-0.5%[9.22 µM]	92.0%[activator]
CCOc1ccc(C2C=C(c3ccc(C)cc3)Nc3ncnn32)cc1 (stereo unspecified)	1.49e-08M*	2.6%	20µM*	-2.4%	7.1%	2.8%	30.8%[activator]
Cc1cccn2c(=O)c3cc(C(=O)NCCCn4ccnc4)n(C)c3nc12	?	3.6%	?	-0.2%	4.8%	-2.8%	9.9%
O=C(O)COc1ccc2nsnc2c1Cl	?	-3.5%	16.3%	-0.5%	-2.6%	-2.2%	3.6%
COC(=O)C1=C(C)NC2=C(C(=O)CCC2)C1c1cccc(C)n1 (stereo unspecified)	i	-3.0%	15.0%	-1.4%	0.7%	3.5%	-1.9%
Cc1cc(C)c2c(n1)nn1c(NCCCn3ccnc3)cc(C)nc21	?	-2.9%	5.8%	-0.1%	10.0%	2.6%	-0.2%
